Bioassay records as filed in PubChem BioAssay.
MARV entry inh: blocks Marburg virus binding to or entry into cells; Marburg virus pseudotyped entry inhibition, cell reporter; control for the full effect not named in the record; about a third of the inactives were read at about 46 µM; Potency, µM (titrated, usually from 37.8 µM), for inactives: top-dose activity change, negative = inhibition, actives largely listed as inhibitors; 1.8% of 300,000 active; AID 540276; active = well fitted inhibition curve with a large enough effect; inconclusive = small, poorly fitted or top-dose-only effect, or effect the other way; inactive = flat fitted curve, though single readings scatter; tested in HEK293 cells; about a fifth of its hits are not listed in these tables; also: % is scaled to controls: 0 for no effect and ±100 for the full control effect; luciferase read-out
Cruzain noTriton: cruzain (T. cruzi) inhibition without detergent. P25779. purified cruzain, Z-FR-AMC fluorescence, no detergent. Potency, µM, without a hit: max response, negative = inhibition, actives largely listed as inhibitors. 2.3% of 200,000 active. AID 1476; active = well fitted curve in the direction sought with a large enough effect; inconclusive = small, poorly fitted or top-dose-only effect, or another doubt; inactive = no such curve, though single readings can be large; an effect the other way counts as inactive or inconclusive;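 also: plate controls were enzyme without inhibitor for no effect and buffer without enzyme for full effect; nearly all actives have a fitted effect of over 40% in size; top concentration of the series not given in the record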
Target sequence (P25779 123-467 limits assumed): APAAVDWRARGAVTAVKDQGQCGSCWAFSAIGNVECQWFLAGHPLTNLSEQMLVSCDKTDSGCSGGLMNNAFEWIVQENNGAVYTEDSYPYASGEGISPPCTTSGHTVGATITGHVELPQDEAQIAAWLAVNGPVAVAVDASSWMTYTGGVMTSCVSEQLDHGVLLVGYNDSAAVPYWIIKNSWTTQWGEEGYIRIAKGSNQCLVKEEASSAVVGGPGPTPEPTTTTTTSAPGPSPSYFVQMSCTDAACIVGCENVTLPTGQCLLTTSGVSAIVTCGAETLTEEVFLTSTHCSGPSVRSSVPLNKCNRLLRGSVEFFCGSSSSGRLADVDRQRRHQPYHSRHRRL
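Purified cruzain at 1.5 nM, pre-incubated 15 min with compound at room temperature in 100 mM sodium acetate pH 5.5, 5 mM DTT, 0.00005% Triton X-100. Reaction started with 2 uM Z-FR-AMC; AMC fluorescence increase over 60 s gives rate.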
NS1 function inh: blocks influenza NS1 protein function; S. cerevisiae slowed by influenza A NS1, growth recovery by OD600; Potency, µM (highest dose often 46.1 µM), without a hit: at the top dose activity, positive = more growth; 0.4% of 270,000 active; AID 2326; also: actives are rising curves; nearly all actives have a fitted effect of over 50% in size
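Compounds were scored for reversing the slow growth caused by influenza A NS1 in S. cerevisiae, measured by optical density at 600 nm. Assay medium contained 2% galactose at pH 6.0; NS1-free yeast of the same strain were the positive control.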
2A StopGo: FMDV 2A StopGo reporter, luciferase signal. human cells with a luciferase reporter of 2A StopGo recoding; control for the full effect not named in the record. Potency, µM (series often up to 57.9 µM), for the others: at the top dose signal change, negative = less light. 1.2% of 410,000 active. AID 1159524; active = well fitted falling curve with a large enough effect; inconclusive = small, poorly fitted or top-dose-only effect; inactive = no such curve, though single readings can be large or run the other way; tested in HEK293T cells; also: % is scaled to controls: 0 for no effect and ±100 for the full control effect; nearly all actives have a fitted effect of over 45% in size; luciferase light after 4 h
SARS PLpro yeast: inhibitors of SARS-CoV papain-like protease in yeast; Potency, µM (series often up to 32.9 µM), for the others: at the top dose activity, positive = growth rescue; S. cerevisiae expressing SARS-CoV PLpro, growth rescue; control for the full effect not named in the record; 0.19% of 330,000 active; AID 485353; also: 0% is about no effect; nearly all actives have a fitted effect of over 55% in size; growth read by luminescence after 48 h
Lassa entry inh: Lassa virus entry inhibition. Lassa virus pseudotype entry inhibition, cell reporter; control for the full effect not named in the record. Potency, µM (highest dose often 37.9 µM), for the others: at the top dose activity change, negative = inhibition, actives largely listed as inhibitors. 1.2% of 300,000 active; active means well fitted inhibition curve with a large enough effect; inconclusive means small, poorly fitted or top-dose-only effect, or effect the other way; inactive means flat fitted curve, though single readings scatter; tested in HEK293 cells; also: % is scaled to controls: 0 for no effect and ±100 for the full control effect; nearly all actives have a fitted effect of over 50% in size; luciferase read-out
Cruzain Triton: cruzain (T. cruzi) inhibition with detergent; Potency, µM, without a hit: max response, negative = inhibition, most hits filed as inhibitors; P25779; purified cruzain, Z-FR-AMC fluorescence, 0.01% Triton; 0.43% of 200,000 active; active = well fitted curve in the direction sought with a large enough effect; inconclusive = small, poorly fitted or top-dose-only effect, or another doubt; inactive = no such curve, though single readings can be large; an effect the other way counts as inactive or inconclusive;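 also: plate controls were neutral wells for no effect and buffer without enzyme for full effect; nearly all actives have a fitted effect of over 40% in size; top concentration of the series not given in the record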
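Sodium acetate buffer (100 mM, pH 5.5) containing 5 mM DTT and 0.01% Triton X-100 hosted 1.5 nM cruzain and test compound for 15 min at room temperature. Cleavage of 2 uM Z-FR-AMC was then tracked by fluorescence.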
RE007 growth inh: less growth of the S. pombe RE007 Vpr strain; S. pombe RE007 Vpr strain, BacTiter-Glo ATP luminescence, 24 h; control for the full effect not named in the record; 0.21% of 360,000 active; AID 651644; Potency, µM (titrated, usually from 92.2 µM), for inactives: top-dose activity change, negative = less growth; active = well fitted falling curve with a large enough effect; inconclusive = small, poorly fitted or top-dose-only effect; inactive = no such curve, though single readings can be large or run the other way;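 also: % is scaled to controls: 0 for no effect and ±100 for the full control effect; nearly all actives have a fitted effect of over 50% in size; the assay follows cell death caused by Vpr and the record does not say whether a fall means rescue or toxicity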
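Fission yeast strain RE007, carrying one chromosomally integrated HIV-1 vpr copy, was seeded at OD 0.01 in PMG+AL medium with 23 nL pinned compound. After 24 h at 30 °C and 99% humidity, viability was read by BacTiter-Glo luminescence.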
The depositor's hits bear a star; ? = inconclusive; nt = not tested or not shown; & = joins results of further samples; [ ] = dose if it differs, or a comment. Unless noted, calls follow the shape of the dose curve; as a rule, active means well fitted rising curve with a large enough effect; inconclusive means small, poorly fitted or top-dose-only effect; inactive means no such curve, though single readings can be large or run the other way. Potency is read from the fitted curve at half-maximal effect.

SMILES | MARV entry inh | Cruzain noTriton | NS1 function inh | 2A StopGo | SARS PLpro yeast | Lassa entry inh | Cruzain Triton | RE007 growth inh
CCc1nc2ccc(C(=O)NCCc3ccc(OC)cc3)cc2nc1CC | nt | nt | -10% | -29% | 1% | nt | nt | -8%
C=CCN1CN(S(=O)(=O)c2cccc(Cl)c2)c2nc3ccccc3nc21 | nt | nt | -17% | -6% | -6% | nt | nt | 8%
COc1ccc(C)cc1NC(=O)C12CCC(C)(C(=O)O1)C2(C)C (stereo not given) | ? | 2% | 1% | 37%[activator] | -1% | -24% | 2.6% | 0%
C(=C1c2ccccc2-c2ccccc21)c1ccncc1 | ? | nt | nt | 4% | nt | -16% | nt | ?
COc1ccc(NC(=O)c2cc([N+](=O)[O-])ccc2N2CCCCC2)cc1OC | ? | nt | nt | -24% | -4% | ? | nt | -16%
c1cc2n(c1)-c1c(ccc3c1OCO3)CNC2c1ccc2c(c1)OCO2 (stereo not given) | ? | 4% | -9% | 8% | -4% | -1% | -3.4% | -11%
O=C(C1CC1)N1CCc2cc(Br)cc(S(=O)(=O)NCC3COc4ccccc4O3)c21 (stereo not given) | -17%&-17%[46.1 µM] | ? | 11% | 45%[activator] | -2% | -27% | -2.4% | 11%
Cc1cc(NC(=O)CN2CCCCC2)n(-c2ccccc2)n1 | nt | nt | 6% | -10% | -2% | nt | nt | 10%
CSc1ccccc1NC(=O)COC(=O)c1ccccc1Cc1ccccc1 | -17% | -10% | 5% | -28% | 21% | -8% | -4.3% | -4%
Cc1[nH]c(C)c(S(=O)(=O)N2CCN(c3cccc(C(F)(F)F)c3)CC2)c1C(=O)N1CCCCC1 | nt | nt | -7% | -22% | 4% | nt | nt | -3%
CCN(CC)S(=O)(=O)c1ccc(C(=O)N2CCN=C2SCc2cccnc2)cc1 | -26%[46.1 µM] | 4% | 13% | ? | -2% | -10% | 1.3% | -21%
Cc1cc(C)c2c(CC(=O)NC(C)C)coc2c1 | -18%[46.1 µM] | nt | nt | 4% | 1% | -1% | nt | 1%
COc1ccc(NC(c2ccccc2)P(=O)(Oc2ccccc2)Oc2ccccc2)cc1 (stereo not given) | 4% | 10% | -7% | 13% | -3% | nt | -5.4% | 0%
COC(=O)c1ccc(N2CCOCC2)c(NC(=O)c2cccnc2)c1 | 24% | nt | 1% | 12% | -4% | 4% | nt | -6%
CCN(CC)c1ccc(/C=N/NC(=O)CNC(=O)c2cccnc2)cc1 | -29%[46.1 µM] | nt | -1% | 5% | 2% | 9%[46.1 µM] | nt | 4%
Cc1ccc(C(=O)N2CCc3cc(CNC(=O)c4ccnn4C)ccc32)cc1 | nt | 7% | nt | ? | nt | ? | 0.3% | nt
Clc1ccc2c(c1)C=Nc1c(NCc3ccccc3)ncnc1O2 | 2%[46.1 µM] | ? | 3% | -18% | 6% | -25% | 2.8% | -4%
COc1ccccc1C(=O)Nc1nc2nc(C)c(Cc3ccccc3)c(=O)n2[nH]1 | -8%[46.1 µM] | -20% | nt | -11% | nt | 14%[46.1 µM] | -0.8% | nt
CC(C(=O)NC1CCCCC1)N(Cc1ccc(F)cc1)C(=O)c1snc(C(N)=O)c1N (stereo not given) | -19%[46.1 µM] | nt | -4% | -10% | 2% | nt | nt | 3%
CCCCn1c(SCC(=O)Nc2cc(C)[nH]n2)nc2ccsc2c1=O | ? | -5% | -16% | ? | -4% | -20% | 1.1% | 10%
Cc1c(S(=O)(=O)N2CC(C)CC(C)C2)c(=O)n(C)c(=O)n1C (stereo not given) | -21% | nt | 6% | -16% | 3% | 6% | nt | 7%
CCCc1nn2c(=O)cc(COC(=O)c3ccccc3NC(=O)c3ccc(Cl)cc3)nc2s1 | nt | -1% | nt | 6% | nt | 11%[46.1 µM] | 0.7% | nt
OCCCCNCc1ccc(OCc2ccc(Cl)cc2)cc1 | ? | 1% | -15% | nt | -5% | 18% | 2.0% | -2%
O=C(NCc1cccs1)c1cc(-c2ccccn2)nc2ccc(Br)cc12 | -5%[46.1 µM] | nt | -3% | 13% | 1% | -25% | nt | 0%
COc1ccc(C(=O)Nc2ccc3c(c2)C(=O)c2ccccc2C3=O)cc1OC | 8% | -8% | 20% | 3% | -24% | 4% | -4.7% | 26%
OC[C@@H]1CCCN1Cc1cn(-c2ccccc2)nc1-c1ccc2c(c1)OCO2 | nt | nt | -10% | 2% | -1% | nt | nt | -15%
COC(=O)c1c(NC(=O)Cn2cnc([N+](=O)[O-])n2)sc2c1CCC(C)C2 (stereo not given) | 3% | 5% | 5% | -8% | -28% | -1% | -5.8% | -15%
CC(=O)NC(=S)Nc1ccc(S(=O)(=O)N(C)Cc2ccccc2)cc1 | -6%[46.1 µM] | nt | 0% | 22µM* | 1% | 3% | nt | 57%
COc1cccc(-c2csc(N3CCN(C(=O)Nc4ccc(F)cc4)CC3)n2)c1 | ? | ? | ? | ? | -79% | 4% | -5.6% | 0%
O=C(C1=C[C@H](C2CCCCC2)C[C@H](OCc2ccc(CO)cc2)O1)N1CCN(Cc2ccccc2)CC1 | nt | nt | -11% | -23% | 0% | nt | nt | 5%
COc1ccc(NC(=O)Cn2ncn3c(cc4ccccc43)c2=O)c(OC)c1OC | nt | nt | 16% | -4% | 4% | nt | nt | 14%
Cc1ccc(S(=O)(=O)NCCCN(C)C)cc1 | -4% | 4% | 0% | 13% | 2% | 21% | 3.0% | 5%
Cc1ccc(C(=O)N/C(=C\c2ccco2)C(=O)N2CCSCC2)cc1C | 13%[46.1 µM] | nt | 4% | 4% | 0% | 23%[46.1 µM] | nt | -4%
COc1cccc(-c2nnc(SCc3cccnc3)o2)c1 | ? | 2% | -34% | 57%[activator] | 8% | -4% | -2.1% | -17%
COc1ccc([C@@H]2C(C#N)=C(N)S[C@@H](c3ccccc3)[C@@H]2[N+](=O)[O-])cc1 | 2% | -12% | 25% | ? | 16% | ? | -4.5% | 10%
COc1cccc(C(=O)NC2CC3CCCC(C2)N3CC(=O)Nc2ccc(N(C)C)cc2)c1 (stereo not given) | -4%&-4% | 2% | -36% | -20% | -3% | 5% | -1.2% | -10%
CCCCCn1cnc2sc(-c3ccccc3)cc2c1=O | 2% | -5% | -16% | 62%[activator] | -5% | 0% | 2.3% | -2%
CCC(C)NC(=O)Nc1ccccc1F (stereo not given) | 2% | 0% | -6% | -16% | 7% | 18% | -1.3% | 12%
CC(C)N(CC#CCC(O)(c1ccccc1)c1ccccc1)CCO | ? | nt | 6% | -18% | 0% | -21% | nt | -24%
CN(c1ccc(C(=O)NCc2ccco2)cc1)S(C)(=O)=O | 25%[46.1 µM] | -6% | 10% | 5% | -2% | -10% | 0.0% | -13%
Cc1ccc(C(=O)N2CCN(Cc3nc4sc5c(c4c(=O)[nH]3)CCCC5)CC2)cc1 | ? | nt | -5% | ? | 1% | 2% | nt | -14%
COc1cccc(C(=O)Nc2cccc(-c3nnc(-c4ccco4)o3)c2)c1 | ? | 2% | -8% | 14µM* | 1% | ? | -8.8% | -13%
Cc1cc2c(c(=O)n1Cc1ccccn1)C(c1ccc3c(c1)OCO3)C(C#N)=C(N)O2 (stereo not given) | ? | -3% | 4% | -5% | 0% | 6% | 8.8% | 6%
COc1cc(C(=O)NCC(=O)Nc2c(C)cccc2C)ccc1OCc1ccccc1 | ? | nt | nt | 24% | 2% | 1% | nt | 7%
Nc1cc(=O)[nH]c(SCC(=O)Nc2ccccc2Sc2ccc(Cl)cc2)n1 | 1%[46.1 µM] | nt | nt | ? | 1% | ? | nt | 3%
O=C(NC1CCCC1)C(c1ccsc1)N(Cc1ccccc1)C(=O)Cc1cccs1 (stereo not given) | ? | -2% | -6% | 4% | 3% | -25% | -12% | ?
Cc1c(-c2ccccc2)n[nH]c1C(=O)NN | -1%[46.1 µM] | nt | nt | 49%[activator] | 0% | -2% | nt | -10%
COc1ccc(NCc2nnc(SCC(=O)Nc3cc(C(F)(F)F)ccc3Cl)o2)cc1 | -5%&-5% | -17% | -18% | -15% | 1% | 0% | -7.2% | -22%
COc1ccc2[nH]c(=O)c(CN(CCCN(C)C)C(=O)Nc3ccccc3)cc2c1 | ? | -6% | -3% | -8% | -1% | 0% | -2.9% | 2%
O=C(CCc1ccc(S(=O)(=O)N2CCOCC2)cc1)N/N=C/c1ccc(O)c(O)c1O | -48% | 8% | 17% | 40µM* | ? | -20% | 0.6% | nt
Cc1cccn2cc(CCNS(=O)(=O)c3cccs3)nc12 | ? | nt | -1% | 25% | -3% | ? | nt | 5%
COC(=O)/C=C1\N/C(=N/c2nc(C)c3cc(OC)ccc3n2)NC1=O | 9% | nt | 19% | 5% | -3% | ? | nt | -17%
O=C(COC(=O)c1ccccc1-n1cnnn1)c1ccccc1 | 4%[46.1 µM] | nt | nt | 19% | 2% | 16% | nt | -6%
COc1ccccc1Nc1ccc(S(=O)(=O)N2CCCCC2)cc1[N+](=O)[O-] | -1% | -11% | 1% | -25% | 11% | -2% | -4.6% | 2%
CCOC(=O)Cn1c(C(C)=O)nc2ccccc21 | nt | -11% | 1% | -14% | 14% | nt | -3.7% | 8%
Cc1cccc(CN2C(=O)c3ccccc3Sc3ccc(C(=O)NCCc4ccccc4)cc32)c1 | nt | ? | nt | -1% | nt | ? | 1.1% | nt
COc1cc(S(=O)(=O)n2ccc(C)n2)c(OC)cc1Cl | 11% | 1% | 0% | 14% | -2% | 6% | -1.5% | 8%
CCCCn1c(SCC(=O)Nc2ccc3c(c2)CCC3)nc2ccccc2c1=O | ? | -8% | 27% | -24% | 4% | 15% | 1.3% | 1%
Cc1ccccc1NC(=O)CN1C(=O)S/C(=C/c2cccnc2)C1=O | 25%[46.1 µM] | nt | 6% | 18% | 6% | 20%[46.1 µM] | nt | 4%
O=C(NCc1ccccc1Cl)c1ccc(CSc2nc3ccncc3[nH]2)cc1 | ? | nt | 10% | -1% | 0% | ? | nt | -9%
